RanGTP-Impb inh: disruptors of Ran-importin-beta complex formation – biochemical, FRET, CFP-Ran, YFP-importin-beta, homogeneous, primary screen. cell-free CFP-Ran/YFP-importin-beta FRET ratio. inhibition, % (concentration not given with the values). hit rate 1.1% among 300,000. AID 2216;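 active = most replicates above 15%; inconclusive = exactly half above 15%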;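 also: 0% = DMSO wells and 100% = Ran loaded with GDP instead of GTP; wells of about 40 µL received 100 nL stock; the first replicate is given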
FGF22 binding: shifts melting point of recombinant human FGF22; recombinant FGF22 thermal shift, SYPRO orange fluorescence; percent of sucrose octasulfate shift, DMSO zero; calls only at 9.99 µM; hit rate 1.5% among 340,000;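 active = melting point raised past a set limit in the mean and every replicate; inconclusive = no clear call; three in four hits are not shown here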
Target sequence (Q9HCT0 whole entry, looked up): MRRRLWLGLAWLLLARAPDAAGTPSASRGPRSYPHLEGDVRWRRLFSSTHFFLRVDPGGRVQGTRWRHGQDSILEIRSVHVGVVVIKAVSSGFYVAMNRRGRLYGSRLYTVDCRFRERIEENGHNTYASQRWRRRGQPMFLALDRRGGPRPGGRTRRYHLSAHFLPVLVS
E coli growth: inhibitors of Escherichia coli growth; OD600, 23 h; hits give low values; OD600 absorbance (test concentration not listed); hit rate 0.21% among 330,000;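 active = OD600 absorbance below the run mean of sample wells minus 3.6 SD, in any replicate, cut at about 0.56 in these data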;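 also: stock transfer was 300 nL into about 60 µL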
MLL AF4-AF9 inh: MLL-AF4/AF9 protein interaction inhibition; P42568; AlphaScreen, biotin-AF4 peptide binding to FLAG-AF9; inhibition, % at 10 µM; hit rate 0.47% among 350,000; AID 651704;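 active = every replicate reaching a set inhibition limit, whatever the replicate mean, cut at about 25% in these data; inconclusive = mean inhibition reaches that limit but some replicates miss it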;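 also: 0% = plate neutral control median and 100% = total signal loss; the record names both 10 and 1 µM as test concentration; the first replicate is given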
Target sequence (P42568 whole entry, looked up): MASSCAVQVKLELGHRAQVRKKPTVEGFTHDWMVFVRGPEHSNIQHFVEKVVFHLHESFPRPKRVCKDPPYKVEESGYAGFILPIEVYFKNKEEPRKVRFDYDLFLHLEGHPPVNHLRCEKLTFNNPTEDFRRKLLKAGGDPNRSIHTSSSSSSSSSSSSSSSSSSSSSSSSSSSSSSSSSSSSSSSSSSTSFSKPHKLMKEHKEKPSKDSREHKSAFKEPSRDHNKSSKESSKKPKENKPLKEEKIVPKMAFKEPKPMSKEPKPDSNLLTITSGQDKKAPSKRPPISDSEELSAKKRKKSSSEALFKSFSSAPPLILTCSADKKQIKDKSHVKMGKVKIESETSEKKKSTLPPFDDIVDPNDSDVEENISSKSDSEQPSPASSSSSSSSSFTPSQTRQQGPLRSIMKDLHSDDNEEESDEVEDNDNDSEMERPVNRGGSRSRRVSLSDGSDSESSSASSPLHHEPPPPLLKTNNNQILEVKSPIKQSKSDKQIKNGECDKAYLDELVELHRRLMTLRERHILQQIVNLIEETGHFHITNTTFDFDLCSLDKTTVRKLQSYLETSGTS
Vif TR-FRET: inhibitors of Vif binding to APOBEC3G peptide, primary screen, biochemical, TR-FRET, GST-Vif 1-94, biotin-A3G peptide, dose response retest (AID 1117319) | TR-FRET GST-Vif / biotin-A3G peptide binding; higher % means a stronger effect; test concentration not given here; strong numbers were not always called active | one-dose inhibition, %; IC50 in µM for titrated hits | hit rate 0.57% among 260,000;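 active = above the screen mean plus three standard deviations and confirmed in dose response; inconclusive = results disagree or hit not tested in dose response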;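 also: Vif residues 1-94 fused to GST binding biotinylated APOBEC3G peptide 110-148; 0% = full assay without inhibitor and 100% = GST in place of GST-Vif; retest series ran down from 100 µM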
UCH37 inh: human UCH37 deubiquitinating enzyme inhibition | Q9Y5K5 | purified proteasome/UCH37, Ub-AMC cleavage fluorescence | inhibition, % (concentration not given with the values) | hit rate 0.33% among 330,000;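 active = mean of two replicates above 20%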;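 also: 0% = compound-free wells with enzyme and 100% = wells lacking proteasome; stock transfer was 100 nL into about 20 µL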
Target sequence (Q9Y5K5 whole entry, looked up): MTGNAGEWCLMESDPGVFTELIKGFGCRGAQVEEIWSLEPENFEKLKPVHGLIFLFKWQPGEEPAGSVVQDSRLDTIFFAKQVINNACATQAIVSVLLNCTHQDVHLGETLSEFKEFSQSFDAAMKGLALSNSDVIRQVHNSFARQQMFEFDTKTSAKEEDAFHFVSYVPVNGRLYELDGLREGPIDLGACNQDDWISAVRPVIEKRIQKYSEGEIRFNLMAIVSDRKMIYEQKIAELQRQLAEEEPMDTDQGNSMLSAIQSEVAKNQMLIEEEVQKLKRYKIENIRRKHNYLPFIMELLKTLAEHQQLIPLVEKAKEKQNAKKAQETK
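system = Proteasome-associated human UCH37 deubiquitinase | amount = 0.15 nM proteasome as dispensed | medium = pH 7.4 Tris-HCl (50 mM) with ovalbumin, ATP-MgCl2, DTT | incubation = 30 min preincubation with enzyme, 25 min cleavage at room temperature | detection = AMC fluorescence 355/460 nm | read-out basis = percent inhibition | controls = no-proteasome and no-compound wells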
HNF4A DNA FP: change in binding of human HNF4 alpha to DNA | activity change, % at 10 µM | P41235 | hit rate 0.3% among 360,000 | HNF4a-FITC DNA binding, fluorescence polarization, 1 h; in the data active = activity change above about 30%, passing the limit was not always enough;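 also: controls were the assay level and a saturating level of protein; the project sought stronger binding though the title names inhibitors; some compounds called inactive have numbers as strong as hits; positive values seem to mean higher polarization but the record does not say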
Starred values were filed as active, the others as inactive; i = inactive; ? = inconclusive; . = not tested or not shown; & = joins results of further samples. Some of the compounds tested, so the mix of outcomes need not match the whole.

SMILES	RanGTP-Impb inh	FGF22 binding	E coli growth	MLL AF4-AF9 inh	Vif TR-FRET	UCH37 inh	HNF4A DNA FP
O=C(Nc1ccc(N2CCOCC2)cc1)C1CCN(S(=O)(=O)Cc2ccccc2)CC1	-0.4	.	0.7	.	-2%	-1.4	2.1
Cc1cccc(C)c1NC(=O)CS(=O)CC(=O)Nc1ccc(F)cc1F (stereo not given)	0.7	.	0.67	.	2%	0.9	-1.1
COc1ccc(O)c(-c2c(-c3ccc(Cl)cc3)n[nH]c2C)c1	6.2	.	0.64	.	-1%	2.2	-4.5
Cc1ccc(SCC(=O)Nc2cc(C)on2)cc1	4.7	.	0.72	.	16%	3.7	-0.6
O=C(N/C(=C\c1ccccc1Cl)C(=O)N1CCOCC1)c1ccc([N+](=O)[O-])cc1	-0.9	i	0.69	1.7	18%	3.3	0.1
FC(F)(F)Oc1ccccc1C(c1nnnn1C1CCCCC1)N1CCN(C/C=C/c2ccccc2)CC1 (stereo not given)	.	i	.	4.4	.	.	0.6
CN(C)c1cc[nH]c(=O)c1C#N	1.5	.	0.71	.	?	0.7	0.2
CCC(C)c1ccccc1N1CC(C(=O)Nc2cccc(S(=O)(=O)N3CCOCC3)c2)CC1=O (stereo not given)	-1.8	i	0.73	-5.2	-3%	5.1	1.4
N#CCSc1nnc(-c2ccc3c(c2)OCO3)o1	-0.9	i	0.67	-2.8	.	4.4	2.4
CCC1CCC/C1=N\NC(=O)c1ccccc1C (stereo not given)	3.6	.	.	-6.6	.	.	-2.5
Cc1ccc(-c2cc[n+](Cc3ccccc3)cc2)cc1	.	i	0.7	-0.9	.	-19	-0.6
O=c1oc(-c2ccc([N+](=O)[O-])cc2)nc2ccc(O)cc12	-2.1	i	0.71	8.4	-7%	6.1	-1.2
O=C(Nc1ccc(-c2cscn2)cc1)C1CCCN(Cc2ccc(CO)o2)C1 (stereo not given)	?	i	0.68	-2.0	.	1.8	-0.1
COc1cc(Cl)ccc1OCc1cc(C(=O)N2CCN(C)C(=O)[C@@H]2C)no1	.	i	.	0.8	1%	.	4.2
Cc1ccc(S(=O)(=O)c2nc(C)c3c(n2)CCC3)cc1	-0.4	.	0.71	.	-2%	-0.5	1.2
Cc1ccc(NC(=O)CSc2ccc(-c3ccccn3)nn2)cc1	-1.1	i	0.66	1.2	-4%	2.4	0.0
CCCNC(=O)CN(C)CC(=O)Nc1ccccc1C#N	-1.2	i	0.65	-2.6	4%	0.5	0.8
CC1(C)CC(=O)c2c(O)cc(OCC(=O)Nc3ccc(CCO)cc3)cc2O1	0.4	i	0.71	0.3	.	4.4	0.3
Cc1coc2c(C)c3oc(=O)c(CCC(=O)N[C@H](C(=O)O)C(C)C)c(C)c3cc12	.	i	.	-0.2	-1%	.	1.1
O=C1N(Nc2ccccc2)C(c2ccc(Br)cc2)C12CCCCC2 (stereo not given)	-1.4	.	0.7	.	0%	2.4	-0.9
Cc1ccc(NC(=O)c2ccc3c(c2)CCN3S(C)(=O)=O)cc1C	-2.4	i	.	0.2	9%	.	-1.9
Nc1ccc(Oc2ccccc2F)nc1	5.9	i	0.68	-0.8	-4%	-0.8	-2.7
COc1ccc(C2(C(=O)N3CCOCC3)CCCC2)cc1	1.2	.	0.73	.	-1%	-4.6	3.7
CC(=O)NC12CC3CC(CC(CC(=O)O)(C3)C1)C2	-0.6	.	0.71	.	3%	3.7	2.6
O=C(Cn1ncc2c3ccccc3n(Cc3ccccc3F)c2c1=O)NCCN1CCOCC1	0.4	i	0.75	0.5	3%	-3.7	1.3
CCCCNC(=O)C1(C)CCC(=O)N1C1CC1 (stereo not given)	.	i	.	-2.0	.	.	3.6
CCOc1ncnc2c1oc1nc(CC(C)C)c3c(c12)CC(C)(C)OC3	-1.5	i	0.69	-8.5	30%	-1.0	0.8
O=C(O)CN=C1CC(c2ccccc2)CC(=O)/C1=C(/O)CCCN1C(=O)c2ccccc2C1=O (stereo not given)	1.8	.	.	-0.9	-6%	.	2.9
CCCC(=O)N1CCN(c2ccc(NC(=O)C(C)(C)C)cc2Cl)CC1	0.0	i	0.69	-17	4%	0.0	1.4
COc1ccc(CNC(=O)COC(=O)c2ccc(S(=O)(=O)N3CCCCC3)cc2)cc1	.	i	0.72	-34	-6%	0.5	2.2
CC(C)Cc1c(O)nc(SCCN2CCOCC2)[nH]c1=O	-13	.	0.72	.	-2%	0.7	-0.3
O=c1sc2ccccc2n1COc1ccccc1	.	.	0.63	.	1%	3.2	-0.4
N#C/C(=C\c1ccc(OCC(N)=O)cc1)C(=O)NC1CC1	8.0	i	0.72	-2.3	.	1.9	-2.2
O=C(O)CN1C(=O)SC(Nc2ccc(Cl)cc2)C1=O (stereo not given)	3.8	.	0.6	.	25%	4.0	0.3
Cc1ccc(S(=O)(=O)/N=C2\C=C(NS(=O)(=O)c3ccc(C)cc3)C(=O)c3ccccc32)cc1	.	i	.	-0.9	.	.	-0.8
NC(=S)Cc1nc(-c2ccccc2)cs1	30*	i	0.62	2.4	31%	6.9	2.0
COc1cc(C(=O)N2CCN(S(=O)(=O)c3ccc(C)cc3)CC2)ccc1OCc1c(C)noc1C	-4.0	.	0.7	.	-1%&-7%	5.8	2.0
CCN(CCCNC(=O)Cn1ncc2c(=O)oc3ccccc3c21)c1cccc(C)c1	-5.2	i	0.68	3.5	-13%	0.2	-8.3
Cc1nc(Cl)sc1C(=O)Nc1cccc(Cl)c1	1.9	i	0.7	-8.7	.	2.6	0.0
CN(Cc1ccon1)C(=O)CC1C(=O)NCCN1Cc1ccc(F)c(F)c1 (stereo not given)	2.3	.	0.69	.	12%	-9.1	-3.3
O=C1NC[C@@H](CCCCN2CCN(CC3CCCCC3)C(=O)C2=O)N(CCC2CCCCC2)C1=O	.	i	.	0.5	.	.	1.9
Nn1cnnc1N/N=C/c1ccc(Cl)c([N+](=O)[O-])c1	?	.	.	-2.9	-5%	.	-3.0
COc1ccc(OC)c(C2(O)CSC(=Nc3cccnc3)N2Cc2ccco2)c1 (stereo not given)	1.6	.	0.63	-1.6	3%	-1.1	-5.5
COc1ccc(N(CC(=O)NCCSC2CCCCC2)S(=O)(=O)c2ccc(C)cc2)cc1	4.1	i	0.68	-1.9	-5%	2.7	-0.4
Cn1c(COc2ccc([N+](=O)[O-])cc2)nnc1SCC(N)=O	2.9	i	0.69	0.1	-1%	5.0	2.0
O=c1oc(-c2ccccc2)nc2c1cnn2-c1ccccc1	3.5	.	0.71	.	10%	0.1	0.4
COc1ccc(/C=C2\Sc3ccc(C(=O)NCCCN4CCCC4)cc3N(C)C2=O)cc1OC	3.1	i	0.69	4.7	.	6.0	7.7
CCOC(=O)C1=CN(Cc2cccc(Br)c2)S(=O)(=O)N(CC)C1C (stereo not given)	.	i	0.72	-4.6	-4%	1.5	-0.4
COc1ccc(NC(=O)N(C)C[C@H]2Oc3c(NS(=O)(=O)c4cccs4)cccc3C(=O)N([C@@H](C)CO)C[C@@H]2C)cc1	.	i	0.77	-1.6&2.0	.	-0.4	0.4
CCOc1ccc2[nH]c(C)cc(=O)c2c1	1.5	.	0.73	-5.0	5%	-18	-0.1
CC(C)NC(=O)c1ccccc1NC(=O)CN(c1ccc2c(c1)OCO2)S(C)(=O)=O	-0.8	.	0.7	.	14%	-2.8	-1.1
COc1cc2c(cc1OC)C(C(=O)Nc1ccc3c(c1)OCCO3)C1c3ccccc3CCN1C2=O (stereo not given)	-0.9	.	0.62	.	15%	0.7	-0.2
COc1cc(CN2CCNC(=O)C2CC(=O)NCCC2=CCCCC2)cc(OC)c1 (stereo not given)	1.4	i	0.69	-15	.	2.4	0.5
CCOC(=O)N1CCN(C(=O)CCCN2C(=O)CSc3nc(C)cc(C)c32)CC1	3.4	.	0.69	.	?	4.0	-4.6
Cc1nn(-c2ccccc2)c(C)c1/C=N/NC(=O)c1cc(C(C)(C)C)[nH]n1	-1.2	.	.	.	7%	.	-0.6
CCc1nnc(NC(=O)CSc2nnc(-c3ccc(O)cc3)n2C)s1	1.0	.	0.65	-1.6	2%	1.2	2.9
O=C1/C(=C\c2cccc([N+](=O)[O-])c2O)SC(=S)N1Cc1ccccc1	4.6	i	0.67	9.1	-5%	7.4	-2.5
COc1ccccc1-c1cc2nc(C)c(CCC(=O)NC(C)CCc3ccco3)c(C)n2n1 (stereo not given)	?	i	0.74	4.6	-3%	-3.4	-0.1
CCOC(=O)[C@]12CCCC=C1N(CCC1=CCCCC1)C(=O)[C@H](CC(=O)NCc1cccs1)C2	.	i	.	1.2	.	.	2.6
CC(=O)Nc1cccc(-c2ccnc3c2CC(C(=O)Nc2cccc(OC(F)(F)F)c2)O3)c1 (stereo not given)	.	i	.	-3.1	.	.	7.8

Additional entries
SMILES	RanGTP-Impb inh	FGF22 binding	E coli growth	MLL AF4-AF9 inh	Vif TR-FRET	UCH37 inh	HNF4A DNA FP
O=C(CCN1C(=O)c2cccc([N+](=O)[O-])c2C1=O)Nc1nccs1	0.4	i	0.66	-0.9	-5%	1.7	1.6
Cc1nc(N2CCN(c3ccccc3)CC2)[nH]c(=O)c1CCC(C)C	1.2	i	0.71	0.3	-6%	0.4	-1.0
CCN(CC)c1ccc(-c2sc(Nc3ccccc3)n[n+]2-c2ccc(F)cc2)cc1	?	i	0.67	7.4	.	2.0	148
CC(=O)Nc1ccc(Nc2nnc(-c3ccc(C)c(S(=O)(=O)NCC4CCCO4)c3)c3ccccc23)cc1 (stereo not given)	0.4	i	0.68	2.7	-20%	1.4	5.6
Cc1nnc(NC(=O)CSc2nnc(-c3ccco3)o2)s1	-0.1	.	0.66	.	11%	1.2	-2.3
Cc1ccc(C)c(NS(=O)(=O)c2cc3c4c(c2)CC(=O)N4CCC3)c1	2.1	i	0.69	3.2	0%	-1.0	-0.8
O=C(N/N=C/c1ccsc1)c1cc2ccccc2o1	0.9	i	.	-0.8	.	.	-0.3
CCOC(=O)C1(CCOc2ccccc2)CCN(Cc2cccc(OC)c2OC)CC1	2.1	i	0.65	0.9	-8%	1.3	-0.6
COC(=O)[C@@]1(Cc2ccc(F)cc2)[C@H]2c3cc(C(=O)N(C)C)n(Cc4ccc(OC(F)(F)F)cc4)c3C[C@H]2CN1C(=O)c1ccccc1	?	i	.	-13	33%	3.8	.
COc1ccccc1N1CCN(C(=O)c2ccc(Cl)c(S(=O)(=O)N3CCOCC3)c2)CC1	5.3	i	0.72	0.7	-1%	0.8	4.2
CCOc1ccc(NC(=O)COC(=O)C2(C)CC2(Cl)Cl)c([N+](=O)[O-])c1 (stereo not given)	-3.7	i	0.66	14	-7%	0.8	0.5
NC(=O)c1ccccc1NC(=O)c1ccccc1S(=O)(=O)c1ccccc1[N+](=O)[O-]	-3.7	.	0.71	.	.	0.1	-2.7
Cc1cc(Br)ccc1NC(=O)CN(C)C(=O)c1ccccc1OCc1c(C)noc1C	.	i	.	-8.3	0%	.	-1.1
O=C(O)C1(c2cccc(Cl)c2)CCC1	1.5	.	0.71	.	-2%	6.5	1.4
Cc1nn(C)cc1/C=N/NC(=O)c1ccco1	1.5	i	.	0.4	10%	.	-0.1
CCn1cc(C(=O)Nc2ccccc2C(=O)OC)cn1	4.3	i	0.64	-0.8	.	1.6	4.0

Exported bar-delimited: part of the list above.
compound | RanGTP-Impb inh | FGF22 binding | E coli growth | MLL AF4-AF9 inh | Vif TR-FRET | UCH37 inh | HNF4A DNA FP
O=C(O)C1(c2cccc(Cl)c2)CCC1 | 1.5 | . | 0.71 | . | -2% | 6.5 | 1.4
Cc1nn(C)cc1/C=N/NC(=O)c1ccco1 | 1.5 | i | . | 0.4 | 10% | . | -0.1

Screens (PubChem)
